# Autofluor counter: flagged as autofluorescent in microsphere protease counterscreen | compound autofluorescence counterscreen, microsphere flow cytometry; active compounds read high | fluorescence intensity (no concentration beside the values) | 360,000 tested, 3.1% active | AID 624483;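 active = at least 3 SD above the mean of all compounds, about 16000 in these data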;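 also: 100 nL of 1 mM stock went into each well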
# * marks the source's active call; other numbers are inactive results.
SMILES,Autofluor counter
COc1ccc(S(=O)(=O)NC(=O)C2(C)CCN2C(=O)CC2CCCC2)cc1 (stereo unspecified),3032
CCC(=O)N1CCC1(C)C(=O)Nc1ncc(C)s1 (stereo unspecified),3800
O=C1NC[C@H](CCCCN2C[C@H](Cc3ccccc3)N(CCc3ccc(O)cc3)C(=O)C2=O)N(CCc2ccc(O)cc2)C1=O,5680
C[C@H](CO)N1C[C@H](C)[C@@H](CN(C)C(=O)c2ccccc2)OCc2cn(nn2)CCCC1=O,3627
O=C(NCc1cccnc1)c1csc([C@@H]2O[C@H](CO)[C@H](O)[C@H](O)[C@H]2O)n1,2894
O=C(CSc1nc2[nH]ncc2c(=O)[nH]1)Nc1cc(C(F)(F)F)ccc1Cl,3450
O=C(Nc1cccc(C(F)(F)F)c1)c1csc([C@@H]2O[C@H](CO)[C@@H](O)[C@H]2O)n1,2991
Nc1c([N+](=O)[O-])cc2c3c(cccc13)CC2,4103
O=C(COC(=O)c1ccc2c(c1)OCCO2)Nc1ccccc1C(F)(F)F,3995
COc1ccccc1COc1cccn2c(N(C)C(=O)CCC3CCCC3)c(C)nc12,3516
COc1cc(CNc2nc3ccccc3n2Cc2ccccc2)ccc1O,2919
CC1(C(=O)NS(=O)(=O)Cc2ccccc2)CCN1C(=O)Cc1ccc(-c2ccccc2)cc1 (stereo unspecified),3772
COc1ccc(CNc2cccnc2Cl)cc1,5941
C[C@H](CO)N1C[C@H](C)[C@H](CN(C)S(=O)(=O)c2cccs2)OCc2cnnn2CCCC1=O,3517
COc1ccc(CC(N)c2csc(Nc3ccc(S(C)(=O)=O)cc3)n2)cc1 (stereo unspecified),3938
C[C@@H]1CN([C@@H](C)CO)C(=O)c2cc(C3=CCCCC3)cnc2O[C@H]1CN(C)C(=O)Nc1cccc(F)c1,4150
CC(=O)Nc1cccc(-c2ccnc3c2CC(C)(C(=O)NCc2cccc(Cl)c2)O3)c1 (stereo unspecified),3940
Nc1ncnc2c1ncn2C1OC(CO)C2OC21 (stereo unspecified),5555
COC(=O)[C@]12CCCCC=C1N(Cc1ccco1)C(=O)[C@H](CC(=O)NCCC(C)C)C2,4327
Cc1ccc(-c2c(C#N)c(N)n(-c3ccccc3C)c(=O)c2C#N)cc1,3458
COC(=O)C[C@@H]1C[C@@H]2c3cc(NC(=O)NC4CCCCC4)ccc3O[C@@H]2[C@H](CO)O1,3813
Cc1cc2nc(C(C)(C)C)c(CC3CCCCC3)n2c(C)c1Br,5566
COc1ccc(C)cc1/C=C/C(=O)N1CCN(S(=O)(=O)c2cccs2)CC1,3554
COC[C@H]1CCCN1c1ccc2c(c1)O[C@H](COCc1ccccc1)CN([C@@H](C)c1ccccc1)S2(=O)=O,5743
COC[C@@H]1CCCN1c1ccc2c(c1)O[C@H](COCc1ccccc1)CN([C@@H](C)c1ccccc1)S2(=O)=O,4157
O=C(OCCO)c1c(C2=CCCCC2)oc2c1C(OCCO)CCC2 (stereo unspecified),5552
O=C(NCc1cccnc1)c1cc(C2CCCN(C(=O)C3CCCCC3)C2)on1 (stereo unspecified),3683
CCN(CC(=O)Nc1c(F)cccc1F)C(=O)c1c(-c2ccccc2Cl)noc1C,2876
COc1cccc(-c2cc(NC=O)c3ncc(-c4cc(OC)c(OC)c(OC)c4)n3c2)c1,3496
Cn1nc(C(C)(C)C)cc1C(=O)N1CCCCC1c1cc(C(=O)Nc2cccc(C#N)c2)no1 (stereo unspecified),2901
CC(=O)Nc1cccc(-c2ccnc3c2CC(C(=O)Nc2ccc4c(c2)OCO4)O3)c1 (stereo unspecified),3172
CCCCNC(=O)c1ccc2nc(CC)c(N(CCC(C)C)CCN(C)C)n2c1,3512
CCCCn1nnnc1C(c1cc2ccccc2o1)N(C)Cc1ccc(Cl)cc1 (stereo unspecified),5850
CC(=O)c1cccc(-c2ccnc3c2CC(C(=O)NCc2cccs2)O3)c1 (stereo unspecified),2983
Cc1noc(C)c1C(=O)N1CCC1(C)C(=O)NS(=O)(=O)Cc1cccc(Cl)c1 (stereo unspecified),2898
CNc1cncc(-c2ccc(NS(C)(=O)=O)cc2)n1,3500
NC(=O)CSc1nnc(-c2cccc(S(=O)(=O)N3CCOCC3)c2)o1,3970
COc1ccc(-c2csc(C(C)(O)c3cccnc3)n2)cc1 (stereo unspecified),3629
O=C(C[C@H]1C[C@H]2c3cc(NS(=O)(=O)c4ccc(F)cc4)ccc3O[C@H]2[C@H](CO)O1)NCc1cc(F)ccc1F,3544
CC1(C)CC(=O)C=C(c2cccc(OC(=O)c3ccc(-c4ccccc4)cc3)c2)C1=O,3809
O=C(Nc1ccc(Oc2ccccc2)cc1)c1ccc2sc([C@H]3C[C@H](O)[C@@H](CO)O3)nc2c1,3773
CC1(C(=O)Nc2cccc(C#N)c2)CCN1C(=O)C/C=C/c1ccccc1 (stereo unspecified),3766
Cc1ccc(S(=O)(=O)N2CCC(C(=O)N3CCN(c4ccccn4)CC3)CC2)cc1C,4014
O=C(Nc1ccccc1Oc1ccccc1)[C@@H]1O[C@H](CO)[C@H](O)[C@H](O)[C@H]1O,3709
O=C(NCc1cccnc1)c1cc(C2CCCCN2C(=O)c2ccc(Cl)cc2)on1 (stereo unspecified),3478

# Of the compounds above, these contain two or more sulfur atoms:
SMILES,Autofluor counter
C[C@H](CO)N1C[C@H](C)[C@H](CN(C)S(=O)(=O)c2cccs2)OCc2cnnn2CCCC1=O,3517
COc1ccc(CC(N)c2csc(Nc3ccc(S(C)(=O)=O)cc3)n2)cc1 (stereo unspecified),3938
COc1ccc(C)cc1/C=C/C(=O)N1CCN(S(=O)(=O)c2cccs2)CC1,3554
NC(=O)CSc1nnc(-c2cccc(S(=O)(=O)N3CCOCC3)c2)o1,3970

# Other records.
SMILES,Autofluor counter
O=C(Nc1cccc2ccccc12)c1csc([C@@H]2O[C@H](CO)[C@@H](O)[C@H]2O)n1,2908
O=C(CSc1nc2c(cnn2-c2ccc(F)cc2)c(=O)[nH]1)N1N=C(c2cccs2)CC1c1ccc(F)cc1 (stereo unspecified),5164
COc1ccccc1Cc1c(-c2ccc(C#N)cc2)nc2c(C)cc(Br)cn12,6549
CNC(=O)C[C@H]1C(=O)N(c2ccc(OC)cc2)C[C@@H]1CSC,3719
C[C@H](CO)N1C[C@H](C)[C@H](CN(C)C(=O)CCC(F)(F)F)OCc2cnnn2CCCC1=O,2943
CCOc1ccc(N(CC(=O)Nc2ccc(Cl)cc2)S(C)(=O)=O)cc1,3516
Cc1cn([C@H]2C[C@H](O)[C@@H](/C=C/C(=O)N3CCN(Cc4ccc(F)cc4)CC3)O2)c(=O)[nH]c1=O,5989
C[C@@H]1ON(C)[C@H]2C[C@H]3c4[nH]c5ccc(-c6ccc7c(c6)OCO7)cc5c4CCN3C[C@@H]12,4379
COc1cc(OC)cc(C2=Cc3ccc(OC)cc3C(CC(C)=O)N2c2ccc(C#CC3(N)CCCCC3)cc2)c1 (stereo unspecified),4201
Cc1ccc(S(=O)(=O)N2C[C@H]3n4c(=O)ccc(=O)n4C[C@H](OC(=O)NC4CC4)[C@@]3(O)C2)cc1,3727
CSCCNC(=O)C1(C)CCN1C(=O)C/C=C/c1ccccc1 (stereo unspecified),2801
C[C@@H]1CN([C@H](C)CO)C(=O)CCCn2nncc2CO[C@H]1CN(C)C(=O)c1ccc(N2CCN(C)CC2)cc1,3039
COc1ccccc1Cc1c(-c2ccc(OC)c(OC)c2)nc2ccc(Cl)cn12,5402
Cc1cc(C(O)c2ncc(-c3ccccc3C)[nH]2)ccc1F (stereo unspecified),3755
O=S1(=O)CC(N2CCCC2)CN1Cc1cn(Cc2ccc(F)cc2)nn1 (stereo unspecified),4182
COc1cc(F)ccc1-c1csc(C(O)c2ccccc2)n1 (stereo unspecified),3725
COc1ccccc1CNC(=O)Nc1nc(C(N)CCc2ccccc2)cs1 (stereo unspecified),3873
O=C1NC[C@@H](CCCCN2C[C@H](Cc3ccc(O)cc3)N(CCc3ccccc3)C(=O)C2=O)N(CCc2ccccc2)C1=O,5131
Cc1cccc(C)c1-n1nnnc1C1(C)CCC(=O)N1CCc1ccc(O)cc1 (stereo unspecified),6263
COc1ccccc1CCC(=O)NNC(=O)Cn1nc(C)cc1C,2934
COc1ccc(-c2nc3c(C)cc(Br)cn3c2Cc2ccccc2)cc1OC,5908
CS(=O)CC(O)(c1ccc(F)cc1)C1CC1 (stereo unspecified),4131
COC[C@H]1CCCN1c1ccc2c(c1)O[C@@H](COCc1ccccc1)CN([C@H](C)c1ccccc1)S2(=O)=O,4384
CC(=O)c1cccc(-c2cnc3c(NC=O)cc(-c4cccc(C(=O)N(C)C)c4)cn23)c1,3997
Clc1cccc(Cc2c(-c3ccccc3)nc3ccc(Cl)cn23)c1,6960
O=C(CCN1N=C(c2ccccc2)CCC1=O)NC1CCCCC1,3726
O=C(CN1C(=O)NC2(CCCCCC2)C1=O)Nc1ccc(OC(F)(F)F)cc1,2831
CNc1cncc(-c2ccc(S(C)(=O)=O)cc2)n1,4197
CC(C)C[C@H]1COc2cc(N3CCC[C@@H]3CO)ccc2S(=O)(=O)N1,6071
O=C(Nc1ccc(C(=O)O)cc1)/C(=C\c1ccc2c(c1)OCO2)NC(=O)c1ccccc1Cl,3934

# Given with each value named: 2 of the compounds above
C[C@H](CO)N1C[C@H](C)[C@@H](CN(C)C(=O)c2ccccc2)OCc2cn(nn2)CCCC1=O
  Autofluor counter: 3627

O=C(NCc1cccnc1)c1csc([C@@H]2O[C@H](CO)[C@H](O)[C@H](O)[C@H]2O)n1
  Autofluor counter: 2894

# New compounds follow:
SMILES,Autofluor counter
COc1cccc(-c2nnc(NC(=O)CCS(=O)(=O)c3ccc(F)cc3)o2)c1,2942
COc1ccc(Br)c(Cn2c(C)c(C(=O)N(C)Cc3ccc(F)cc3)sc2=O)c1,5845
COCOCCn1cc(CN2CCS(=O)(=O)N(Cc3ccc(-c4ccc(OC)cc4)cc3)C(C)C2=O)nn1 (stereo unspecified),3596
C=CCN(CC=C)Cc1cc(=O)oc2cc(C)ccc12,6288
Cc1cc(S(=O)(=O)N2CCCCC2CCNC(=O)C(=O)NCCN2CCOCC2)ccc1F (stereo unspecified),2837
CC(=O)Nc1ccc(CNc2nc3cc(-c4ccsc4)sc3c(=O)n2C)cc1,3457
O=C(c1cccnc1)N1Cc2ccccc2-n2nncc2C1,3632
CCOC(=O)C1=CCN(S(C)(=O)=O)C1c1ccc(C)cc1 (stereo unspecified),5396
COc1ccc2nc3n(c(=O)c2c1)-c1cc2ccccc2cc1C(=O)NC3Cc1ccccc1 (stereo unspecified),3763
c1ccc2c(c1)nnn2Cn1nnc2ccccc21,3262
C[C@@H]1CCCCO[C@H](CN(C)Cc2ccc3c(c2)OCO3)[C@H](C)CN([C@@H](C)CO)C(=O)c2cc(NC(=O)c3ccccc3)ccc2O1,3024
CSCCC(C(=O)Nc1c(C)cccc1C)N1CCN(C/C=C/c2ccccc2)CC1 (stereo unspecified),6239
OC[C@@H]1CN(Cc2ccc(Cl)cc2)C[C@H](n2cnc3c(NC4CCC4)ncnc32)O1,3554
C1=CCN(c2nc(N3CCOCC3)nc(N3CCCc4ccccc43)n2)CC1,3605
NC(Cc1ccc(F)cc1)c1csc(Nc2cnccn2)n1 (stereo unspecified),2913

# Some of these compounds in order of molar mass, highest first:
SMILES,Autofluor counter
COCOCCn1cc(CN2CCS(=O)(=O)N(Cc3ccc(-c4ccc(OC)cc4)cc3)C(C)C2=O)nn1 (stereo unspecified),3596
CSCCC(C(=O)Nc1c(C)cccc1C)N1CCN(C/C=C/c2ccccc2)CC1 (stereo unspecified),6239
CC(=O)Nc1ccc(CNc2nc3cc(-c4ccsc4)sc3c(=O)n2C)cc1,3457
NC(Cc1ccc(F)cc1)c1csc(Nc2cnccn2)n1 (stereo unspecified),2913
O=C(c1cccnc1)N1Cc2ccccc2-n2nncc2C1,3632
C=CCN(CC=C)Cc1cc(=O)oc2cc(C)ccc12,6288
c1ccc2c(c1)nnn2Cn1nnc2ccccc21,3262

# More results.
SMILES,Autofluor counter
O=C(Nc1cccc(OC(F)(F)F)c1)C1Cc2c(-c3ccco3)ccnc2O1 (stereo unspecified),4051
CCOC(=O)[C@]12CCCC=C1N(Cc1ccc3c(c1)OCO3)C(=O)[C@H](CC(=O)N1CCOCC1)C2,4265
CC(C)C1C(=O)N(Cc2cn(CCC3OCCO3)nn2)CCS(=O)(=O)N1Cc1ccc(-c2ccc(F)cc2)cc1 (stereo unspecified),4053
CNC[C@H]1OCc2ccccc2-c2ccccc2C(=O)N([C@@H](C)CO)C[C@H]1C,3641
CCCS(=O)(=O)NC(=O)C1(C)CCN(C(=O)c2c(C)noc2C)C1 (stereo unspecified),4088
COc1ccc(CCNC(=O)c2c(O)c3cc(OC)c(OC)cc3[nH]c2=O)cc1OC,3603
CCOC(=O)c1cc(OC)c2cccc(CN3CCCC(C)(C(=O)NCCOC)C3)c2c1 (stereo unspecified),3689
COC(=O)c1ccc2nc(-c3ccco3)c(Cc3ccc(OC)cc3C)n2c1,6325
COc1cc(F)ccc1-c1csc(C(C)(NC(C)=O)c2ccccc2)n1 (stereo unspecified),3488
CC1(C(=O)O)CCN1C(=O)c1cccnc1Oc1ccccc1 (stereo unspecified),3636
Cc1ccc(S(=O)(=O)N2C[C@H]3[C@H]4C(=O)N(c5ccccc5)C(=O)[C@H]4C[C@H](OC(=O)NC4CC4)[C@@]3(O)C2)cc1,3998
CCOc1ccccc1NC(=O)C(OC(=O)c1cnc(C)cn1)c1ccccc1 (stereo unspecified),3480
CCCCCCCCCC1NC(C(=O)O)Cc2c1[nH]c1ccccc21 (stereo unspecified),3827
NC(c1csc(NC(=O)Nc2cccc(Cl)c2)n1)c1ccccc1Cl (stereo unspecified),3340
OC[C@@H]1CN(Cc2ccccc2)C[C@H](n2cnc3c(NCc4ccc(F)cc4)ncnc32)O1,3725
CC(=O)Nc1ccc(NC(=O)C2(C)Cc3c(-c4ccc5c(c4)OCO5)ccnc3O2)cc1 (stereo unspecified),3781
CCCc1c(-c2ccc(F)cc2)ncn1CCc1ccccc1OC,6567
C/C(=N\NC(=O)c1nnn(-c2nonc2N)c1CN1CCC(C)CC1)c1ccc(Br)cc1,3328
CN(CCc1ccccc1)C(C(=O)Nc1ccc2c(c1)OCCO2)c1ccnc2ccccc12 (stereo unspecified),6270
CC1(C(=O)Nc2ccc(F)cc2F)CCN1C(=O)CCC1CCCC1 (stereo unspecified),3651
CC(C)NC(=O)c1cc(C2CCCCN2C(=O)c2ccc(C#N)cc2)on1 (stereo unspecified),3691

# High-throughput results (PubChem)

# Only part of the results is shown; count on the stated rates, not on these rows.
